From PubChem
HNF4A DNA FP – change in binding of human HNF4 alpha to DNA | HNF4a-FITC DNA binding, fluorescence polarization, 1 h | activity change, % at 10 µM | AID 1224865 | P41235 | actives 0.3% (n = 360,000); in the data active means activity change above about 30%, passing the limit was not always enough;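 further: controls were the assay level and a saturating level of protein; the project sought stronger binding though the title names inhibitors; some compounds called inactive have numbers as strong as hits; positive values seem to mean higher polarization but the record does not say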
Target sequence (P41235 whole entry, looked up): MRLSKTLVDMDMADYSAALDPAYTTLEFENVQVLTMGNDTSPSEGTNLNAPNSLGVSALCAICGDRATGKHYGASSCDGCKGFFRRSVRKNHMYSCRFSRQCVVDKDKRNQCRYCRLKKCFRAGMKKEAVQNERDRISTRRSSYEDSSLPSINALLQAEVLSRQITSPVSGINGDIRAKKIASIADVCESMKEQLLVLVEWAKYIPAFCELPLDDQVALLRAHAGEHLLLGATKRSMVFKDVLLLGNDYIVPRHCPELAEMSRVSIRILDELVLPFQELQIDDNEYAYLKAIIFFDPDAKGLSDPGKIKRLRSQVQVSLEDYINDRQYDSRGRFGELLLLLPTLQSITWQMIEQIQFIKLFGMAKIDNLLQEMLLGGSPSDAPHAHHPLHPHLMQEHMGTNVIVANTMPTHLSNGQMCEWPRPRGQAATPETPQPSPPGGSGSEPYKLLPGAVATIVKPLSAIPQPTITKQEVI
ALR H2O2 inh – human ALR oxidase inhibition via reduced H2O2. P55789. purified ALR, DTT oxidation, H2O2 HRP-luminol luminescence. inhibition, % (test concentration not listed). actives 3.8% (n = 290,000). AID 485317;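 active means mean and each replicate at 75% or more; inconclusive means only one of the two met; inactive means neither met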;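 further: stock transfer was 7.5 nL into about 7.5 µL; 0% = neutral wells and 100% = wells with inactivated enzyme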
B2AR ag – activates human beta-2 adrenergic receptor causing internalization; response, % (no concentration beside the values); P07550; actives 0.43% (n = 340,000); Am2.2-beta2AR cells, FAP receptor internalization, flow cytometry; reference of the scale not given here;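 active means response above a set limit, near 3 SD of response in nonfluorescent compounds, cut at about 42% in these data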;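 further: stock transfer was 100 nL into about 11 µL; a reference agonist was the positive control; negative values mostly stem from fluorescent compounds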
E coli growth – E. coli growth inhibition; AID 1053175; Escherichia coli growth, OD600, 23 h; active compounds read low; actives 0.21% (n = 330,000); OD600 absorbance (test concentration not listed);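 active means OD600 absorbance below the run mean of sample wells minus 3.6 SD, in any replicate, cut at about 0.56 in these data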;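 further: stock transfer was 300 nL into about 60 µL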
UCH37 DUB inh – inhibitors of human deubiquitinating enzyme UCH37 | AID 588478 | purified proteasome/UCH37, Ub-AMC cleavage fluorescence | inhibition, % (test concentration not listed) | actives 0.33% (n = 330,000) | Q9Y5K5;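 active means mean of two replicates above 20%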;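 further: 0% = compound-free wells with enzyme and 100% = wells lacking proteasome; stock transfer was 100 nL into about 20 µL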
Target sequence (Q9Y5K5 whole entry, looked up): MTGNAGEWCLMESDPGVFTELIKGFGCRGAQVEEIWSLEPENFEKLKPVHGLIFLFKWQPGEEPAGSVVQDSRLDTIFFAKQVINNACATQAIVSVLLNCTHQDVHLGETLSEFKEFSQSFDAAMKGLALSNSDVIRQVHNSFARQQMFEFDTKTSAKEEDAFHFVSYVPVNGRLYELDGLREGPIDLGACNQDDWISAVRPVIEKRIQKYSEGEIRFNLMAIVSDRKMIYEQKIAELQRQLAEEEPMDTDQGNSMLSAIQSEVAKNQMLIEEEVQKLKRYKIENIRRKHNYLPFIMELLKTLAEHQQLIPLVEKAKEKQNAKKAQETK
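Material: Human UCH37 enzyme supplied as purified proteasome complex | Schedule: 30 min compound-proteasome preincubation then 25 min substrate reaction, room temperature | Detection: AMC fluorescence from Ub-AMC cleavage, excitation 355 nm, emission 460 nm | Benchmarks: Wells without proteasome as full block, compound-free enzyme plus substrate as uninhibited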
FGF22 binding – binders of recombinant human FGF22 by thermal shift | Q9HCT0 | SYPRO orange fluorescence; percent of sucrose octasulfate shift, DMSO zero | calls only at 9.99 µM | actives 1.5% (n = 340,000);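 active means melting point raised past a set limit in the mean and every replicate; inconclusive means no clear call; three in four hits are not shown here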
Target sequence (Q9HCT0 whole entry, looked up): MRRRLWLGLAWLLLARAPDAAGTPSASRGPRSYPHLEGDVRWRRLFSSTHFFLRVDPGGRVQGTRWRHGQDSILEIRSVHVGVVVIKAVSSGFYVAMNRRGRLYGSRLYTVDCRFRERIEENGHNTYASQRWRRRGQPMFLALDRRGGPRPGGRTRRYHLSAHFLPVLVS
LANA-H2A inh – blocks KSHV LANA binding to histone H2A/H2B; cell-free LANA-H2A/H2B peptide, fluorescence polarization; AID 2629; actives 0.6% (n = 320,000); inhibition, % (concentration not given with the values); Q9QR71; in the data active means inhibition mostly above about 10%, no sharp cut-off; inactive means mostly below about 6.7%;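 further: stock transfer was 7.5 nL into about 10 µL; 0% = median of vehicle wells and 100% = median of positive control wells; one replicate is shown; the record names a cut of 25% in any replicate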
Starred values were filed as active, the others as inactive; i = inactive; ? = inconclusive; nt = not tested or not shown.

Under each structure – HNF4A DNA FP	ALR H2O2 inh	B2AR ag	E coli growth	UCH37 DUB inh	FGF22 binding	LANA-H2A inh
1) Cc1ccc(C2CC(C(F)(F)F)n3nc(C(=O)NCCN4CCOCC4)cc3N2)cc1 (stereo unspecified)
  -0.2	-11	-2	0.71	4.2	nt	-3.8
2) CCC1Oc2ccccc2N(CC(=O)NCCCN2CCCCC2C)C1=O (stereo unspecified)
  0.9	-7	10	0.62	0.2	nt	0.3
3) CCN(CC)S(=O)(=O)c1ccc(N2CCOCC2)c(NC(=O)c2cc([N+](=O)[O-])ccc2Cl)c1
  2.3	-10	-1	0.71	5.7	i	3.0
4) CCC1CCCCN1CCCNC(=O)C1CCN(S(=O)(=O)N2CCC3(CC2)OCCO3)CC1 (stereo unspecified)
  1.1	4	10	0.7	1.0	i	-12
5) COc1ccc(OCc2nnc(NC(=O)Nc3ccc(F)cc3)s2)cc1
  3.8	-4	1	0.72	3.9	nt	0.3
6) c1ccc(-c2ccc(CN3CCN(c4ncccn4)CC3)cc2)cc1
  2.2	-12	6	0.61	2.5	nt	-0.8
7) COC(=O)/C=C(\C)NC(=O)c1ccc(F)cc1
  -1.0	-5	3	0.76	5.4	nt	1.7
8) CCOc1ncccc1C(=O)OCC(=O)c1ccc(Cl)s1
  -1.3	1	-7	0.71	0.8	nt	-2.9
9) NC(=O)c1ccccc1OCc1nnc(-c2ccccc2Br)o1
  2.4	nt	-10	0.66	0.4	i	2.3
10) CCN(CC)C(=O)C1CCN(Cc2ccc(OCc3ccccc3)cc2)CC1
  -0.8	1	-2	0.7	2.0	i	-2.4
11) CCc1cc2ccccc2nc1SCC(=O)N1CCN(C(=O)c2ccco2)CC1
  1.9	nt	-9	0.71	4.5	nt	nt
12) CC(Oc1ccccc1Cl)C(=O)N(Cc1cccs1)C1CCS(=O)(=O)C1 (stereo unspecified)
  1.9	-3	5	0.69	2.7	i	2.3
13) NS(=O)(=O)c1ccc(CNc2nc(-c3cccnc3)nc3ccccc23)cc1
  3.4	-2	12	0.69	-1.6	i	-2.2
14) CC(NS(=O)(=O)c1ccc(F)cc1)C(=O)Nc1ccc2c(c1)OCCO2 (stereo unspecified)
  2.9	-5	3	0.68	3.4	i	3.0
15) Cc1cc(OCC(=O)NC2CC2)c2c(C)cc(=O)oc2c1
  -0.7	-32	-7	0.7	-122	nt	13*
16) O=C1CCC(C(=O)N2CCCC2)CN1Cc1cccc(C(F)(F)F)c1 (stereo unspecified)
  -5.9	-18	-1	0.74	0.5	i	1.0
17) CCCn1nc2cc(C(=O)NCc3ccc(C)cc3)ccc2c1OC
  -3.5	18	1	nt	-50	i	7.9
18) O=C(OCC#CCSc1nnc(-c2cccc3ccccc23)o1)c1ccco1
  10	nt	0	0.75	-25	nt	6.5
19) O=C(NCc1ccccn1)C(=O)Nc1cccc2ccccc12
  3.4	-5	1	0.64	1.9	i	-4.1
20) Cc1cc(=O)[nH]c(NN=C2C3CC4CC(C3)CC2C4)n1
  -0.1	8	0	0.68	3.4	i	0.0
21) CCN(CC)S(=O)(=O)c1ccc(C(=O)OCCN2C(=O)CCC2=O)cc1
  -2.3	-8	5	0.72	5.8	i	-3.1
22) COc1cccc2c1c(NC(=O)Nc1ccc(F)cc1F)nn2C
  1.5	-3	0	0.71	-0.7	i	-4.7
23) CC(C)(C)C(=O)c1sc(Nc2ccccc2)nc1N
  3.4	97*	-6	0.63	8.5	i	3.7
24) O=[N+]([O-])c1ccc(O)c(Nc2c([N+](=O)[O-])ccc3nonc23)c1
  0.7	32	0	0.59	15	i	-2.0
25) O=C(c1ccco1)N1CCN(c2ccc(Cl)c(Cl)c2)CC1
  -1.1	7	1	0.67	2.9	nt	0.7
26) CCN(CC(=O)Nc1ccc(N2CCOCC2)cc1)Cc1nc2ccccc2c(=O)[nH]1
  0.6	70	-2	0.67	3.4	nt	-1.2
27) Cc1csc(NC(=O)Cc2nn(C)c(=O)c3ccccc23)n1
  -0.7	-10	-6	0.78	2.0	nt	-1.0
28) COc1ccc(CCC(=O)Nc2ccc(-c3noc(-c4ccc(OC)c(OC)c4)n3)cc2)cc1
  -0.4	-9	2	0.66	0.8	nt	-2.4
29) S=C(NCc1ccco1)NCC(c1ccco1)N1CCCCC1 (stereo unspecified)
  1.2	-15	7	0.66	5.9	i	-3.1
30) O=C(C[C@@H]1C/C=C\C[C@@H](Cc2ccc(F)cc2)C(=O)OC[C@@H](Cc2ccccc2)NC1=O)N[C@H](CO)Cc1ccccc1
  0.7	-3	-4	nt	1.6	i	1.4
31) C=CCN(c1ccc(C(N)=O)cc1)S(C)(=O)=O
  -2.2	-1	-1	0.76	-2.4	nt	4.4
32) O=C(CCN1C(=O)COc2ccccc21)N1CCN(c2ccccn2)CC1
  -1.6	3	-4	0.69	-3.8	i	-6.7
33) CC(=O)c1c(C)nc(Nc2nc3ccccc3s2)nc1C
  1.3	nt	9	0.66	0.4	i	-3.3
34) Cc1cc(=O)n2ncnc2n1COCCO
  -1.8	14	6	0.7	0.2	nt	-0.6
35) C[n+]1c(/C=C/c2ccc3c(c2)OCO3)ccc2ccccc21
  -0.3	-1	-1	0.72	4.2	i	-0.7
36) CCCCCCSc1ccc([C@@H]2[C@H]3C(=O)N(CC)C(=O)[C@H]3[C@]3(C(=O)OC)CCCCN23)cc1
  4.6	3	-7	nt	1.3	i	-1.8
37) CCc1nc2cc(CC(=O)O)ccc2o1
  -2.2	nt	3	0.69	0.5	nt	-0.4
38) O=C(Nc1ccccc1)N1CCSc2ccccc21
  0.3	-16	-6	0.65	1.5	i	-0.3
39) COc1ccccc1-c1coc2c(CN3CCC(C)CC3)c(O)ccc2c1=O
  2.1	-3	-4	nt	nt	i	-2.2
40) Oc1ccc(/C=N/Nc2cc(N3CCOCC3)nc(N3CCOCC3)n2)cc1
  -0.7	100*	25	nt	nt	nt	-1.7

Three of the entries above in order of their number in B2AR ag, low to high.
entry	smiles	B2AR ag
5	COc1ccc(OCc2nnc(NC(=O)Nc3ccc(F)cc3)s2)cc1	1
28	COc1ccc(CCC(=O)Nc2ccc(-c3noc(-c4ccc(OC)c(OC)c4)n3)cc2)cc1	2
29	S=C(NCc1ccco1)NCC(c1ccco1)N1CCCCC1 (stereo unspecified)	7

Going on with the list:
Under each structure – HNF4A DNA FP	ALR H2O2 inh	B2AR ag	E coli growth	UCH37 DUB inh	FGF22 binding	LANA-H2A inh
41) Cc1c(Nc2nc3ccccc3nc2NS(=O)(=O)c2cccs2)c(=O)n(-c2ccccc2)n1C
  1.4	10	1	0.69	9.6	nt	11
42) Cc1cc(C)c(S(=O)(=O)NCC(=O)NCc2ccccn2)c(C)c1
  0.0	-1	-11	0.64	1.0	i	0.7
43) Cc1cc[n+](CC(=O)c2cccs2)cc1
  2.5	16	16	0.63	0.9	i	-1.6
44) O=C(Cc1ccc(Cl)cc1)Nc1ccc(S(=O)(=O)Nc2ncccn2)cc1
  3.6	12	-1	0.69	5.2	i	0.9
45) O=C(c1ccc2c(c1)N(Cc1ccc(F)cc1)CCS2)N1CCOCC1
  -2.5	99*	1	0.7	-76	i	-1.5
46) CCc1nc(SCC(=O)OC)c2c3c(sc2n1)COC(C)(C)C3
  1.6	-6	2	0.67	6.5	i	-2.8
47) CCCN(CC(=O)Nc1ccccc1C)C(=O)C1CC(=O)N(c2ccc(CC)cc2)C1 (stereo unspecified)
  -2.7	-11	8	0.65	0.2	i	4.2
48) Cc1ccc(NC(=O)CSc2ccc3c(c2)OCCO3)c(O)c1
  3.1	?	3	0.73	3.2	i	2.1
49) CC(C)NC(=O)N(C)C[C@H]1Oc2ccc(NC(=O)CCC(F)(F)F)cc2C(=O)N([C@H](C)CO)C[C@@H]1C
  3.3	-2	-9	0.78	3.0	i	-3.1
50) CCOC(=O)c1cc(S(=O)(=O)NC2CCN(C(=O)OCC)CC2)cn1C
  -2.6	-27	-1	0.71	0.8	nt	8.3
51) Nc1nonc1-c1nc2ccccc2n1CC(=O)O
  -2.0	-8	-4	0.71	-2.1	nt	2.7
52) O=C(CCN1N=C(c2ccccc2)CCC1=O)NC1CCCC1
  -1.8	-1	1	0.7	1.6	i	-3.2
53) CCC1CCCCN1CCCNC(=O)c1ccc(CS(=O)(=O)Cc2ccc(Cl)cc2)o1 (stereo unspecified)
  3.8	-4	-1	0.65	2.6	i	5.2
54) CCOc1ccc(NC(=O)Cc2c(O)c3ccccc3[nH]c2=O)cc1
  0.3	nt	-1	0.71	2.4	nt	9.8
55) Cc1ccc(CCNC(=O)C2CCCN(S(=O)(=O)c3c(C)noc3C)C2)cc1 (stereo unspecified)
  0.2	5	-6	0.74	1.0	nt	-7.0
56) CCOc1ccccc1N1CCN(C(=O)c2ccc(OCC(=O)N3CCOCC3)c(OC)c2)CC1
  -3.7	15	-1	0.73	2.1	i	-3.3
57) COc1ccccc1OCCNC(=O)/C=C/c1ccc([N+](=O)[O-])cc1
  0.7	-16	-9	0.72	2.2	nt	3.9
58) COc1ccc(C(=O)N2CCCC(Nc3ccc(C)c(C)c3)C2)cc1F (stereo unspecified)
  -2.2	95*	4	0.68	3.7	i	-3.3
59) Cc1ccccc1NC1c2ccccc2C(=O)N1Cc1ccco1 (stereo unspecified)
  4.1	1	0	0.71	5.8	i	2.2
60) C[C@H](CO)N1C[C@H](C)[C@@H](CN(C)S(=O)(=O)c2ccc(F)cc2)Oc2c(NC(=O)Nc3ccc(C(F)(F)F)cc3)cccc2C1=O
  -0.1	-1	2	0.76	2.5	i	-2.8
61) COc1cc(OC)c(NC(=S)Nc2cccc(C(C)=O)c2)cc1Cl
  1.4	-10	2	0.71	1.2	nt	2.3
62) CCCCN1C(=O)NC(NC(=O)C2CC2)(C(F)(F)F)C1=O (stereo unspecified)
  -1.9	0	6	nt	nt	i	1.9
63) Cc1occc1-c1n[nH]c(=S)n1-c1ccccc1
  -3.7	94*	1	0.68	2.3	i	-1.0
64) Cn1c(SCc2ccon2)nc2ccccc2c1=O
  -0.6	-5	-6	0.68	1.1	nt	0.0
65) COc1ccc(NC(=O)Nc2cc(C)ccn2)cc1
  -0.2	nt	-4	0.65	0.5	i	nt
66) CCCN(CC1CCCO1)C(=O)c1cc(COc2ccc(F)cc2F)on1 (stereo unspecified)
  2.5	-3	-8	0.7	4.4	i	-4.3
67) Cc1cc(/C=N/NC(=O)Cn2c3ccccc3c(=O)c3ccccc32)c(C)n1-c1ccc(Cl)cc1
  3.7	nt	15	nt	nt	i	nt
68) COc1ccc(S(=O)(=O)N(Cc2cc3cc(C)ccc3[nH]c2=O)CC2CCCO2)cc1 (stereo unspecified)
  1.9	1	2	0.7	-4.2	nt	4.2
69) O=C(COc1ccc(S(=O)(=O)N2CCOCC2)cc1Cl)NC1CCCCC1
  -0.4	-11	2	0.72	1.7	i	0.6
70) CC(=NNS(=O)(=O)c1ccc([N+](=O)[O-])cc1)c1ccc(C)cc1
  3.1	nt	-9	0.68	5.0	i	nt
71) COc1ccc(C(=O)OCC(=O)c2ccc(Cl)s2)c(OC)c1OC
  0.5	-9	-6	0.68	1.1	i	2.1
72) CCn1c(SCc2nc3ccccc3s2)nc2cc(S(=O)(=O)N3CCOCC3)ccc21
  8.6	38	28	0.66	0.3	i	-1.0
73) Cc1cccnc1NC(=O)c1ccc(Cl)c(S(=O)(=O)N2CCCC2)c1
  4.6	6	8	0.66	-1.5	i	-1.0
74) CC(=O)NCCc1ccc(S(=O)(=O)Nc2cccnc2)cc1
  2.4	-19	3	0.65	-1.4	nt	3.9
75) COC(=O)C(C)NC(=O)C1CCCN1C(=O)CNC(=O)OCc1ccccc1 (stereo unspecified)
  -0.6	-1	-2	0.66	-0.3	i	6.7
76) Cc1ccc(-n2c(SCC(=O)N3Cc4ccccc4CC3C(=O)O)nnc2-c2cccnc2)c(C)c1 (stereo unspecified)
  -2.9	-20	3	0.72	7.4	i	-0.8

Not all compounds are listed; count on the stated rates, not on these rows.
